Autofluor counter = flagged as autofluorescent in microsphere protease counterscreen. compound autofluorescence counterscreen, microsphere flow cytometry; stronger effect = higher value. fluorescence intensity (test concentration not listed). actives 3.1% (n = 360,000);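 active = at least 3 SD above the mean of all compounds, about 16000 in these data; inconclusive = too few beads counted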;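 note: 100 nL of 1 mM stock went into each well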
Sa RN4220 lethal = growth inhibition of S. aureus RN4220, primary screen, OD600; inhibition, % (no concentration beside the values); actives 0.33% (n = 330,000); 16 h; AID 1259311, 2017;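 active = z-score of -3 or lower and OD600 up to 0.18 on both plates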;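 note: plate controls were untreated cells for no effect and reference antibiotic for full effect; stock transfer was 100 nL into about 80 µL; one replicate is shown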
BJeLR viability = MLPCN primary cell-based screen for lethality selective to Ras in HRASV12 cells. BJeLR (HRASV12) viability, CellTiter-Glo ATP luminescence, 48 h; reference of the scale not given here. actives 0.17% (n = 300,000). inhibition, % (test concentration not listed);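 active = replicate mean above 50%; inconclusive = above 50% but judged a plate artefact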;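 note: 50 nL library stock added to about 25 µL; numbers are from one replicate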
Mtb hypoxia rep = PubChem AID 1159583. M. tuberculosis hypoxia-regulated fluorescent reporter, fluorescence. fluorescence inhibition, % (concentration not given with the values). actives 0.1% (n = 300,000);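 active = 35 to 45% if threefold the growth effect, above 45% if 1.5-fold the growth effect; inactive = the rest, general growth blockers included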;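 note: wells of about 50 µL received 100 nL stock; 0% = vehicle wells and 100% = reference inhibitor wells; whole bacteria with a GFP reporter of the hypoxia response; strong numbers were not always called active; many hits fall short of the cut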
Sa ugtP lethal = growth inhibition of ugtP-null S. aureus, primary screen, RN4220 ugtP deletion, OD600 | 16 h; some inactives read as strong as hits | growth inhibition, % (test concentration not listed) | actives 0.54% (n = 330,000);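 active = z-score under -3 and OD600 up to 0.15 on both plates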;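 note: plate controls were untreated wells for no effect and antibiotic for full effect; wells of about 80 µL received 100 nL stock; the first replicate is given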
PrP UTR inh = inhibition of PrP 5' UTR reporter expression. cell-based PrP 5' UTR mRNA reporter, plate reader. inhibition, % (no concentration beside the values). actives 0.35% (n = 340,000);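 active = every replicate at 50% or more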;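 note: 0 = median of the neutral control wells; tested in H4 reporter cells; numbers are from one replicate; inactives centre near -14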
Mtb hypoxia rep growth = further read-out of Mtb hypoxia rep, marked with its call; growth inhibition, %; measured here: M. tuberculosis growth (absorbance);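 0% = vehicle and 100% = reference antibiotic; read after six days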
Active calls of the source: *; ? = inconclusive; . = no result given.

SMILES	Autofluor counter	Sa RN4220 lethal	BJeLR viability	Mtb hypoxia rep	Mtb hypoxia rep growth	Sa ugtP lethal	PrP UTR inh
Cc1cc(NC(=O)CSc2nnc(NC(=O)C3CC(=O)N(c4ccccc4C)C3)s2)no1 (configuration not stated)	9737	6.9	-12	11	6	-11	0
CCCn1c(C(CO)Nc2nc(-c3cccc(Br)c3)cs2)nc2ccccc21 (configuration not stated)	4027	-7.2	-3	1	-1	-7	-20
Cc1cccc(C(=O)OC(C)C(=O)N2CCc3ccccc3C2)c1C (configuration not stated)	5552	6.3	.	12	12	0	-8
COc1ccc(-n2ncc3c(N4CCN(Cc5ccccc5)CC4)ncnc32)cc1	2644	2.8	2	-6	7	15	-39
Cc1nc(COC(=O)c2ccc(S(=O)(=O)N3CCCC3)cc2)cs1	9094	6.4	2	13	5	-6	89*
O=C(Cn1cnc2ccccc2c1=O)Nc1nnc(C2CC2)s1	3432	2.6	-14	13	9	10	-12
CCOC(=O)C1(CC2CC2)CCN(C(=O)c2cc(C)nc3ccc(CC)cc23)CC1	3832	1.0	2	15	19	-3	-43
O=C(CSc1nnc(-c2ccc(Cl)cc2)n1-c1ccc(Cl)cc1)NN=Cc1ccccc1C(=O)O	.	12	.	11	2	2	.
Cc1c(Cc2ccccc2)c(=O)oc2cc(OCC(=O)NCc3ccccn3)ccc12	4670	0.1	1	7	-3	1	-9
COCCn1c(SCC(=O)Nc2ccccc2OC)nc2ccccc21	4178	2.8	1	12	4	15	-4

Among those listed so far, 2 contain two or more sulfur atoms.
SMILES	Autofluor counter	Sa RN4220 lethal	BJeLR viability	Mtb hypoxia rep	Mtb hypoxia rep growth	Sa ugtP lethal	PrP UTR inh
Cc1cc(NC(=O)CSc2nnc(NC(=O)C3CC(=O)N(c4ccccc4C)C3)s2)no1 (configuration not stated)	9737	6.9	-12	11	6	-11	0
Cc1nc(COC(=O)c2ccc(S(=O)(=O)N3CCCC3)cc2)cs1	9094	6.4	2	13	5	-6	89*

(list continues)
SMILES	Autofluor counter	Sa RN4220 lethal	BJeLR viability	Mtb hypoxia rep	Mtb hypoxia rep growth	Sa ugtP lethal	PrP UTR inh
Cc1ccc(C23CC4CC(CC(C(=O)NCC(=O)O)(C4)C2)C3)cc1	2999	4.3	0	3	-6	-2	.
O=C(OCC(=O)N1CCN(C(=O)c2ccco2)CC1)c1cc(S(=O)(=O)Nc2ccc(Cl)cc2)ccc1O	4168	25	1	-5	-10	-7	-19
Cc1cc(=O)[nH]c(SCc2nc3ccccc3c(=O)n2-c2ccccc2C)n1	3033	6.7	3	-5	2	-5	-7
CCOC(=O)c1oc2ccc(S(=O)(=O)n3nc(-c4ccc(C)cc4)cc3N)cc2c1C	5316	2.9	-13	15	12	4	-13
CC(C)OC(=O)CSc1nnc(Cc2ccccc2)n1Cc1ccco1	19241*	6.3	.	3	7	-8	-13
COc1ccccc1C(O)P(=O)(OCC(C)C)c1ccc(N(C)C)cc1 (configuration not stated)	3437	-0.2	5	-13	1	-12	-9
COc1ccc(NC(=O)C2CCCN2S(=O)(=O)c2ccc3c(c2)CCC(=O)N3)cc1Cl (configuration not stated)	5855	3.3	.	.	.	5	-45
Cc1ccc(S(=O)(=O)N2CCN(C(=O)CCNC(=O)c3ccccc3Cl)CC2)cc1	6207	1.8	.	1	-5	4	-13
COc1ccc(CCNCc2ccc(OCc3ccccc3)cc2)cc1	4718	-3.8	1	6	4	-25	-4
N#Cc1c(-c2ccccc2)c(-c2ccccc2)n[nH]c1=O	2894	6.7	-9	2	-5	4	12
CCOc1ccc(N(Cc2cc3cc(OC)ccc3[nH]c2=O)S(C)(=O)=O)cc1	9811	2.7	5	-1	9	1	-11
CNC(=O)CSc1nc(SC)ns1	4011	1.8	-2	4	0	1	-34
CCOc1ccc(NC(=O)N2CCC(NC(=O)C(Cc3cccc(F)c3)NC(C)=O)CC2)cc1 (configuration not stated)	3951	3.5	7	19	0	4	-21
COc1c(C)c2c(c(O)c1C/C=C(\C)CCC(=O)O)C(=O)OC2	4644	8.8	31	.	.	8	1
CC1CCC(C(=O)c2c(O)c3ccccc3oc2=O)CC1 (configuration not stated)	20872*	58	5	-10	-6	58	-30
CCOC(=O)C1(Cc2ccccc2)CCCN(C2CCCC2)C1 (configuration not stated)	4756	-0.4	.	9	3	1	-7
O=C(COc1ccc(Cl)cc1)N1CCN(C/C=C/c2ccccc2)CC1	4811	5.3	2	-8	5	9	2
CC(C)C(NC(=O)c1ccccc1)C(=O)OCC(=O)N1CCN(c2ccccc2)CC1 (configuration not stated)	3028	-3.0	.	-10	-2	-3	-8
CC1(C)NC(=S)C(C)(C)N1N=O	3665	5.1	.	12	6	1	-14
COC(=O)c1ccccc1NC(=O)CSc1nnc(-c2cccnc2)n1C	3253	0.9	-8	.	.	3	-11
COc1cccc(-n2c(C)nc3ccccc3c2=O)c1	3537	0.7	-3	.	.	-4	-1
O=c1c2c(nc3cc(-c4ccccc4)[nH]n13)CCC2	3002	1.2	0	.	.	11	-66
O=C(O)C/C=C(\NC(=O)OCc1ccccc1)C(=O)OCc1ccccc1	2501	-1.3	-5	-5	5	48	-30
CCOC(=O)N1CCC(=NNc2nc(C)cc(=O)[nH]2)CC1	4502	3.9	6	-1	8	1	-24
Cn1c(N)c(Sc2ccccc2[N+](=O)[O-])c(=O)n(C)c1=O	3249	2.8	-11	6	0	10	-5
Cc1ccc(OCCCC(=O)Nc2nccs2)cc1	2841	-2.7	-10	7	7	4	-25
Cc1ccccc1S(=O)(=O)Cc1ccc(C(=O)NC2CCCC2)o1	5277	2.4	0	9	10	-2	7
CCOC(=O)CN1Cc2cccc(C(=O)O)c2C1=O	4469	10	-4	-4	13	6	-16
O=c1[nH]c2cc3ccccc3cc2nc1C(F)(F)F	4179	-6.0	4	-1	2	0	-6
CCN(CC)CCCNC(=S)Nc1ccc(Br)cc1	4535	1.8	-4	7	-2	9	-61
CCc1ccc(CN2CCCC(CCC(=O)N3CCN(c4ccccn4)CC3)C2)o1 (configuration not stated)	4657	2.3	-1	-1	-7	-5	-14
CC(C(O)c1cc(=O)c(OCc2ccccc2)co1)[N+](=O)[O-] (configuration not stated)	4383	2.9	-3	-1	3	0	-10
CCOC(=O)c1c(C)n(C)c2ccc(OC)c(NC(=O)CN3CCN(C(=O)c4ccco4)CC3)c12	2802	-2.1	-8	.	.	-3	3
O=C1C(=O)N(CCCN2CCOCC2)C(c2ccc([N+](=O)[O-])cc2)/C1=C(/O)c1ccc2c(c1)OCO2 (configuration not stated)	5701	-6.5	0	-7	-3	-11	-18
COc1cc(NC(=O)C2CC(c3ccccc3O)=NO2)c(OC)cc1Cl (configuration not stated)	3154	0.7	1	-2	-6	0	-20
COc1ccc(NC(=O)CN(C)CC(=O)NC2CCCCC2C)cc1 (configuration not stated)	3827	5.3	.	7	8	0	-12
COc1ccc(N2CCN(C(=O)CN(c3ccccc3)S(=O)(=O)c3ccc(OC)cc3)CC2)cc1	10760	3.8	3	14	9	10	-19
Cc1ccc(C)c(S(=O)(=O)N2CCCCC2CCNC(=O)C(=O)NCc2cccnc2)c1 (configuration not stated)	4469	0.0	-3	-9	-5	1	-16
COc1ccc(C=NNC(=O)c2cc(C)oc2C)cc1OCc1ccccc1	.	-2.5	.	1	1	1	.
Cc1cc(C(=O)NN=Cc2ccc(OC(=O)c3ccccc3Br)cc2)n[nH]1	.	-4.4	.	8	14	1	.
CCN(CC)C(=O)c1ccc(Oc2ccc([N+](=O)[O-])cc2Cl)cc1	3817	6.4	6	15	11	14	-31
Clc1ccc(-n2ncc3c(NCc4ccc5c(c4)OCO5)ncnc32)cc1	2578	-4.7	0	.	.	-1	-24
O=C(Nc1nnc(SCC(=O)N2CCOCC2)s1)c1ccccc1	2611	6.7	5	6	11	4	-19
COc1ccc(-n2c(COc3ccccc3)n[nH]c2=S)cc1	4493	3.4	-1	3	1	5	-11
COc1cc2c(cc1NC(=S)NC(=O)/C=C/c1ccco1)oc1ccccc12	2613	.	-2	.	.	.	-10
Cc1ccccc1NS(=O)(=O)c1ccc(C(=O)NCCCN2CCCC2=O)cc1	?	5.2	9	2	2	4	-25
O=c1[nH]c(CSc2nnc3ccccn23)nc2ccccc12	2402	2.8	-20	5	0	3	-26
CC(=O)Nc1ccc(S(=O)(=O)N(C)Cc2ccccc2)cc1	2345	2.2	-3	10	10	-1	-15
COc1ccc(OC)c(C2(O)CSC(=Nc3cccnc3)N2Cc2ccco2)c1 (configuration not stated)	4212	3.8	-2	-5	0	-2	-18
O=C(COc1ccc(-c2ccccc2)cc1)N/N=C/c1ccccc1Br	4154	.	-5	.	.	.	-17

Continuation:
SMILES	Autofluor counter	Sa RN4220 lethal	BJeLR viability	Mtb hypoxia rep	Mtb hypoxia rep growth	Sa ugtP lethal	PrP UTR inh
C[C@H]1CC[C@@]2(C)[C@@H](CC[C@@H]3[C@@H]2CC[C@]2(C)[C@@H](O)CC[C@@H]32)C1	5263	94*	-5	18	3	99*	-8
Cc1ccc(C)c(S(=O)(=O)NCc2ccc(C(=O)N3CCC(Cc4ccccc4)CC3)cc2)c1	8541	3.2	-1	5	0	-2	-3
Cc1cc(-c2ccccc2)nc(N(C)N)c1S(C)(=O)=O	4701	4.2	6	2	2	-5	-25
Cc1nc(-c2ccc(NC(=O)c3ccccc3)cc2)cs1	4293	13	20	6	5	7	10
C/C(CC(=O)Nc1cc(C)ccn1)=N\NC(=O)c1cccc(C)c1O	5266	.	-7	.	.	.	-27
CC1CCN(C(=O)CNC(=O)c2ccc(Br)o2)CC1	3860	0.9	.	-5	15	3	-44
O=C(Nc1nnc(C2CC2)s1)c1cccnc1Oc1ccc(Cl)cc1	4273	-1.0	-8	5	5	-2	-24
COC(=O)c1cc(S(=O)(=O)NCC2CCN(Cc3cccc(Cl)c3)CC2)c[nH]1	7692	1.2	7	2	3	4	-17
Nc1cccc(N=[N+]([O-])c2cccc(N)c2)c1	3591	2.5	.	6	9	0	-44
CN(C)/C=C/C(=O)c1ccc(OCCN(C)c2ccccn2)cc1	4667	4.1	5	10	5	13	.
Cn1cnnc1SCc1ccc(C(=O)O)cc1	4761	-0.8	-3	.	.	3	-19
Cc1cc(S(=O)(=O)Nc2ccc(N(C)C)cc2)c(C)s1	11051	0.6	-2	6	8	-6	3
O=C(COC(=O)c1ccccc1O)Nc1cc([N+](=O)[O-])ccc1Cl	4815	0.5	-1	6	8	3	-7
Cc1cccc(C(=O)NC2CCN(S(=O)(=O)c3cccc(F)c3)CC2)c1	3538	-1.5	.	0	12	-1	2
COc1ccc(C(=O)N[C@H](C(=O)NCCCn2nc(C)cc2C)C(C)C)cc1	5595	4.4	.	-4	3	6	-22
CS(=O)(=O)N(CC(=O)NC1CCCC1)c1cccc(F)c1	5242	1.6	2	4	5	-1	-7
COCCCNC(=O)Cc1c(C)c2cc3c(cc2oc1=O)OC(C)(C)CC3	3741	3.4	-8	-8	14	1	-12
N#Cc1cc(-c2ccc(Cl)cc2)cnc1Sc1ccc(F)cc1	9966	-2.9	4	9	9	10	-24
CC(=O)Nc1cccc(/C(C)=N/NC(=O)c2ccc(O)cc2)c1	4304	.	18	.	.	.	-15
CC(C)c1nc2cc(C(=O)NC(c3cccnc3)C(F)(F)F)ccc2o1 (configuration not stated)	5187	2.3	4	4	2	5	-10
Cc1cccc(NC(=O)CCC(=O)OCc2ccc(Br)cc2)c1	2521	2.7	-21	-3	3	1	-20
N#C/C(=C\c1cn(Cc2ccccc2C#N)c2ccccc12)C(=O)NCc1cccs1	.	4.3	1	-3	5	-10	.
COc1ccc(Br)cc1C=NNC(=O)c1cc(OC)c(OC)c(OC)c1	.	7.8	.	-2	5	14	.
CCN(CC(=O)NC)S(=O)(=O)c1ccc(C)cc1	3746	1.6	5	.	.	2	-15
CC(=NOc1cccc(F)n1)c1ccc(Cl)cc1Cl	.	2.1	.	5	-2	8	.
CCOC(=O)c1ccc(NC(=O)C2C3CCC(C3)C2C(=O)O)cc1 (configuration not stated)	4774	0.8	7	.	.	-1	-17
CCCCOc1ccc(C(=O)NCC(=O)NCC(c2ccc(OC)cc2)N2CCOCC2)cc1 (configuration not stated)	8219	0.3	.	2	1	-3	-7
O=C(C1CCCCC1)N1CCCn2c1nc1ccccc12	3142	-7.8	2	16	4	-5	-13
O=C(COc1ccc(Br)cc1)N(Cc1ccco1)C1CCS(=O)(=O)C1 (configuration not stated)	5645	2.5	7	3	5	7	4
